From PubChem
pPAFAH inh: inhibitors of human plasma PAF acetylhydrolase (pPAFAH) | AID 463082 | recombinant pPAFAH, FP-rhodamine probe fluorescence polarization | 1.5% of 330,000 active | inhibition, % at 3.39 µM | Q13093;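 active = inhibition above the mean inhibition across the screen plus 3 SD, cut at about 25% in these data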;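 also: inhibitors block binding of the rhodamine activity-based probe so polarization drops; 0% = enzyme with DMSO and 100% = wells lacking pPAFAH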
LYPLA2 counter: counter-screen for PME1 inhibitors: inhibitors of human LYPLA2. O95372. recombinant LYPLA2, FP-Rh probe fluorescence polarization. inhibition, % at 5.9 µM. 0.38% of 320,000 active;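 active = inhibition above the screen-wide mean plus 3 SD, limit set per campaign, cut at about 26% in these data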;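 also: 0% = LYPLA2 with DMSO and 100% = wells lacking LYPLA2 enzyme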
Target sequence (O95372 whole entry, looked up): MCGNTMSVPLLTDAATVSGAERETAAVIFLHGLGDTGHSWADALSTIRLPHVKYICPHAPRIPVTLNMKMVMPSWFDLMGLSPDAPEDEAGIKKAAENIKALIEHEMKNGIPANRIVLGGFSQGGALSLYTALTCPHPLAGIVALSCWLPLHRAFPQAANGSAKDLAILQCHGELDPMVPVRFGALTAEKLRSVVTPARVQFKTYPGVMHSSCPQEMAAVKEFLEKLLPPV
PREPL inhibitor: human PREPL enzyme inhibition; Q4J6C6; recombinant PREPL, fluorescence polarization activity-based probe; 0.68% of 320,000 active; inhibition, % at 5.96 µM; in the data active = inhibition above about 43%;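 also: 0% = enzyme with DMSO and 100% = wells lacking enzyme; many of its hits are not listed in these tables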
LYPLA1 counter: counter-screen for PME1 inhibitors: inhibitors of human LYPLA1 | O75608 | recombinant LYPLA1, FP-Rh probe fluorescence polarization | inhibition, % at 5.9 µM | 0.16% of 320,000 active | AID 2174;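 active = inhibition above the mean of all tested compounds plus 3 SD, set per campaign, cut at about 14% in these data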;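 also: inhibitors block serine hydrolase probe labeling of LYPLA1 so polarization falls; 0% = enzyme with DMSO and 100% = wells lacking LYPLA1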
Target sequence (O75608 whole entry, looked up): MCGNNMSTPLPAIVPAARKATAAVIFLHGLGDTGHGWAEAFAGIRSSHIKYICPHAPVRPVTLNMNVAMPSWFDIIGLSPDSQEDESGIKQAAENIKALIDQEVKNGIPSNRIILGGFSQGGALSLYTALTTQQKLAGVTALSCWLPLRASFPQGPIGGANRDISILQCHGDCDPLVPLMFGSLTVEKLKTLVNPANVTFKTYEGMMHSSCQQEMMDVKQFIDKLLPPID
PME-1 primary: PME-1 (human) inhibition; Q9Y570; recombinant PME-1, FP-Rh probe fluorescence polarization; inhibition, % at 5.9 µM; 0.53% of 320,000 active; AID 2130;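 active = inhibition above the campaign mean of all compounds plus 3 SD, cut at about 26% in these data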;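 also: competitive labeling of PME-1 active site by serine hydrolase directed probe; 0% = PME-1 with DMSO and 100% = wells lacking PME-1 enzyme; inhibitors block probe labeling so polarization falls and inhibition rises; many of its hits are not listed in these tables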
PAD4 inh: inhibitors of human PAD4. Q9UM07. recombinant PAD4, RCA probe fluorescence polarization. inhibition, % at 6.36 µM. 0.41% of 330,000 active. AID 485272;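 active = percent inhibition above a cutoff equal to the mean of all tested compounds plus 3 SD, cut at about 15% in these data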;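 also: 0% = PAD4 with RCA probe and DMSO and 100% = probe without PAD4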
PAFAH1B3 FP inh: PAFAH1B3 (human) inhibition; Q15102; recombinant PAFAH1B3, FP-rhodamine probe, fluorescence polarization; inhibition, % at 3.39 µM; 0.28% of 340,000 active;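 active = inhibition above the screen-wide average of all tested compounds plus 3 SD, cut at about 25% in these data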;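 also: 0% = enzyme with DMSO only and 100% = wells lacking PAFAH1B3 protein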
Target sequence (Q15102 whole entry, looked up): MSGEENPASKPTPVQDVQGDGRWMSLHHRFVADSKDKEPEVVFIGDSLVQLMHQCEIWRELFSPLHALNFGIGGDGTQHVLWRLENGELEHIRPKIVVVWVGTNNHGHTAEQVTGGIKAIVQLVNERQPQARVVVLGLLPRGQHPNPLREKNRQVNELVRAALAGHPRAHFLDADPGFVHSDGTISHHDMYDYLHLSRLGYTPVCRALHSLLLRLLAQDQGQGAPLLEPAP
PAFAH1B2 FP inh: inhibitors of human PAFAH1B2 | P68402 | recombinant PAFAH1B2, FP-rhodamine activity probe, fluorescence polarization | inhibition, % at 3.39 µM | 1.2% of 340,000 active | AID 492953;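 active = inhibition above the mean of all tested compounds plus 3 SD, cut at about 24% in these data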;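 also: 0% = enzyme with DMSO and 100% = wells lacking PAFAH1B2; many of its hits are not listed in these tables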
Target sequence (P68402 whole entry, looked up): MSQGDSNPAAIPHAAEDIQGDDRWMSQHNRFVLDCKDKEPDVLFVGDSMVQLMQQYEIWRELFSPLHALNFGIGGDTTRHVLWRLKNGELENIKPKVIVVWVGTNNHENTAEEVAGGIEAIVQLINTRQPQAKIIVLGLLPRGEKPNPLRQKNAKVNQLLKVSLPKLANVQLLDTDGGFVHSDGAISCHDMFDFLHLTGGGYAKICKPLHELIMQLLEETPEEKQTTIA
* hit, by the source's call; / = not tested or not shown.

SMILES	pPAFAH inh	LYPLA2 counter	PREPL inhibitor	LYPLA1 counter	PME-1 primary	PAD4 inh	PAFAH1B3 FP inh	PAFAH1B2 FP inh
CCn1c(CCNC(=O)c2ccc(Cl)cc2)nnc1SCC(=O)NC1CCCC1	0	3	21	2	-1	2	6	0
CC(=O)Nc1c(O)nc(SCC(=O)Nc2nnc(CC(C)C)s2)[nH]c1=O	-2	1	-8	3	-4	-2	3	1
Cc1ccc(C(=O)CSc2nnc(COc3cccc(C)c3)o2)cc1	2	5	-7	-1	-8	-7	7	2
Cc1cc(C(=O)O)ccc1N=Cc1c(O)ccc2ccccc12	3	1	11	3	1	-3	6	4
CCCC(=O)Nc1nnc(-c2cccc(OCC)c2)s1	1	5	17	1	3	1	1	6
COC(=O)C(NC(=O)CSc1nc(N)cc(=O)[nH]1)c1ccccc1 (stereo not given)	3	3	2	2	-1	0	4	6
COc1ccc(Nc2oc(COc3ccccc3OC)nc2C#N)cc1	3	3	0	-1	-5	-5	0	0
Cc1ccc(-c2csc(NC(=O)c3ccc([N+](=O)[O-])o3)n2)cc1	16	1	-47	-4	6	-16	13	3
CCOC(=O)Oc1ccc2c(=O)c(Oc3cc(C)cc(C)c3)coc2c1	6	5	38	-1	11	0	-2	-1
CCOC(=O)C1(CCCCCCOc2ccc(Cl)cc2)CO1 (stereo not given)	-2	10	6	2	-1	-3	/	/
CCOC(=O)c1c(C)[nH]c(C)c1C(=O)COC(=O)c1ccccc1O	7	-3	-2	3	2	-3	3	4
CCCCn1nnnc1SCC(=O)NNC(=O)C1CCCCC1	2	3	1	-1	-6	-3	15	9
Cc1cc(NC(=O)CSc2n[nH]c(=O)[nH]c2=O)ccc1Br	0	9	14	2	1	4	-1	8
COC(=O)CCCn1c(C)cc(C(=O)CCl)c1C	2	0	1	-1	-1	3	3	1
N#Cc1c(NC(=O)CCCl)sc2c1CCCCC2	-1	7	-8	1	-4	-3	10	3
CCc1ccccc1NC(=O)CSc1nnc([C@@H]2CCCN2C(=O)OC(C)(C)C)o1	6	0	-2	2	6	1	16	-4
O=C(COC(=O)c1cnccn1)c1ccc2c(c1)CCCC2	2	9	-2	0	1	0	8	1
CC(NC(=O)CCl)c1ccccc1Br (stereo not given)	-2	-2	2	1	5	-4	-2	0
O=C1C2=C(CCCC2)C(=O)N1c1cccc(OCCBr)c1	0	-2	1	-4	-1	-1	5	3
Cc1ccc(Cl)cc1NC(=O)COC(=O)CC(C)(C)C	-3	2	-2	-2	3	0	3	4
COc1ccc(N2C(=O)C(Cl)=C(N3CCCC3)C2=O)cc1	4	16	-2	6	-5	-4	4	4
CC(C)(C)NS(=O)(=O)c1cnc(Cl)c(Cl)c1	4	0	5	-4	-2	2	-3	2
C=CCOC(=O)C1=C(C)NC2(O)c3ccccc3C(=O)C12O (stereo not given)	5	1	-5	0	-6	2	4	4
CCn1c(SCC(=O)Nc2nccs2)nnc1-c1ccc(C)cc1	-1	1	11	0	8	-4	3	3
CCc1nnc(NC(=O)CSc2nc3ccccc3c(=O)n2CCCOC)s1	6	-2	2	-2	7	8	4	3
Cc1ccccc1Nc1ccc(S(=O)(=O)N2CCOCC2)cc1[N+](=O)[O-]	6	5	10	-1	8	-2	-1	8
COC(=O)c1ccccc1NC(=O)CSc1[nH]c(=O)cc(C)c1C#N	0	-1	-5	-2	2	0	8	8
CCc1nnc(NC(=O)CSc2nnc(C)c(=O)n2N)s1	8	18	12	1	-3	4	0	8
N#Cc1ccc2ccn(CC(=O)NCc3ccccc3)c2c1	2	5	1	1	1	-5	-1	5
CC(=O)Nc1cc(NC(C)=O)c2nc(N)sc2c1	0	-5	-4	-2	-1	-6	2	2
COC(=O)c1ccc2c(=O)[nH]c(CN3c4ccccc4CC3C)nc2c1 (stereo not given)	6	-6	20	-8	9	-2	9	7
CC(C)(C)c1ccc(-n2ncc3c2CCCC3NC(=O)C2=NNC(=O)CC2)cc1 (stereo not given)	6	16	-13	5	-5	2	0	-7
Cc1ccc(NS(=O)(=O)c2ccc3c(c2)NC(=O)CO3)cc1	19	15	6	4	2	6	2	19
Cc1ncc(CN2CCC(n3nccc3NC(=O)c3ccccc3)CC2)s1	2	-2	1	-3	-6	-1	2	2
O=C(CN1CCC(NC(=O)c2ccccc2F)CC1)NCc1ccc(F)cc1	-1	3	-7	0	-6	1	0	2
Cc1ccccc1/C=N/Nc1ccc(Cl)nn1	1	4	3	-2	-7	-5	3	2

A different layout for part of the listing above.
Cc1ncc(CN2CCC(n3nccc3NC(=O)c3ccccc3)CC2)s1
  pPAFAH inh: 2	LYPLA2 counter: -2	PREPL inhibitor: 1	LYPLA1 counter: -3	PME-1 primary: -6	PAD4 inh: -1	PAFAH1B3 FP inh: 2	PAFAH1B2 FP inh: 2
O=C(CN1CCC(NC(=O)c2ccccc2F)CC1)NCc1ccc(F)cc1
  pPAFAH inh: -1	LYPLA2 counter: 3	PREPL inhibitor: -7	LYPLA1 counter: 0	PME-1 primary: -6	PAD4 inh: 1	PAFAH1B3 FP inh: 0	PAFAH1B2 FP inh: 2
Cc1ccccc1/C=N/Nc1ccc(Cl)nn1
  pPAFAH inh: 1	LYPLA2 counter: 4	PREPL inhibitor: 3	LYPLA1 counter: -2	PME-1 primary: -7	PAD4 inh: -5	PAFAH1B3 FP inh: 3	PAFAH1B2 FP inh: 2

Additional entries follow.
SMILES	pPAFAH inh	LYPLA2 counter	PREPL inhibitor	LYPLA1 counter	PME-1 primary	PAD4 inh	PAFAH1B3 FP inh	PAFAH1B2 FP inh
COc1cccc(/C=N/Nc2ccc(Cl)nn2)c1OC	5	5	3	2	1	0	6	4
COc1ccc(Nc2oc(COc3cccc(C)c3)nc2C#N)cc1	5	4	15	-2	12	5	12	2
CCc1nnc(NC(=O)CSC(=S)N2CCOCC2)s1	0	-4	-5	-1	2	-1	10	3
O=C1N=NC2=C1c1c3ccccc3c(O)n1CC2	2	0	0	2	-4	-13	7	-1
Cc1nc2c(Cl)cccc2c2c1CC(CBr)O2 (stereo not given)	2	-1	-10	-4	5	0	2	1
Cc1c(NC(=O)c2cc(-c3ccc4c(c3)OCO4)on2)c(=O)n(-c2ccccc2)n1C	3	-1	3	-6	-1	3	2	-1
Cc1cc(=O)oc2cc(OCCSCCN3CCCCC3)ccc12	0	7	19	4	6	1	7	-1
N#Cc1nc(COc2ccccc2Cl)oc1NCc1cccnc1	5	2	17	-4	0	-1	6	1
Cc1ccc(C(=O)COC(=O)CNC(=O)COc2ccccc2C)cc1C	1	9	-42	5	-1	-3	3	1
CC(C)c1onc(C(=O)NCc2ccc(Cl)cc2)c1[N+](=O)[O-]	4	2	0	-1	-2	6	-9	4
Cc1ccc(NC(=O)c2sc(Cl)nc2-c2ccccc2)cc1	-4	-2	-7	-2	-18	3	2	1
NC1(N)OC(CN2C(=O)c3ccccc3C2=O)CS1 (stereo not given)	4	3	-5	0	3	1	-6	4
CCOC(=O)C1CCN(C(=O)c2ccc(N(C)S(C)(=O)=O)cc2)CC1	2	4	-2	-1	-5	1	3	4
Cc1nnc(NC(=O)CSc2nc3[nH]ncc3c(=O)[nH]2)s1	5	-3	1	-2	1	-1	7	2
CC(=O)NC(Cc1c[nH]c2ccccc12)C(=O)OCC(=O)Nc1ccc2c(c1)OCO2 (stereo not given)	3	-1	32	0	3	-2	6	7
COc1cc([N+](=O)[O-])ccc1NC(=S)NNC(=O)c1ccc2c(c1)OCO2	19	9	16	-1	24	2	12	9
CC1(OC(=O)CCc2ccccc2)C(=O)C=C2C=C(c3ccc(C#N)cc3)N(C3CC3)C=C2C1=O (stereo not given)	4	3	12	0	-1	-4	7	-1
CCc1nnc(NC(=O)CSc2nc3c(c(=O)n2C)SC(C)C3)s1 (stereo not given)	-4	-3	0	0	2	-5	-1	3
O=S1(=O)OCCC(c2ccccc2)N1Cc1ccccc1 (stereo not given)	2	-5	16	0	1	-3	-3	17
O=C(N[C@@H](Cc1ccccc1)C(=O)CCl)OCc1ccccc1	0	-5	-8	-1	-3	2	5	4
Cc1ccc(S(=O)(=O)CCc2nnc(NC(=O)CCl)s2)cc1C	4	5	2	-3	-7	-4	-3	-1
Cc1onc(-c2ccccc2)c1C(=O)N/N=C/c1ccc([N+](=O)[O-])s1	1	6	11	2	5	-3	12	1
COc1ccc(OCc2nc(N)nc(Nc3ccc(C)cc3)n2)cc1	1	-3	4	-1	-2	-7	8	0
O=CC1=C(N2CCOCC2)/C(=C/c2ccc(Cl)cc2)CC1	4	-3	2	3	-3	-5	7	1
Cc1cc(C)n2nc(SCN3C(=O)c4ccccc4C3=O)nc2n1	5	-2	13	-2	-4	3	5	-3
Cc1c(CN2CCC(n3nccc3NC(=O)c3cccc(F)c3)CC2)cnn1C	1	10	3	0	-1	-4	2	3
COc1ccc(C(=O)NC(=C(Cl)Cl)S(=O)(=O)c2ccc(C)cc2)cc1	-1	5	7	-5	0	0	-2	4
O=C(CSc1n[nH]c(=O)[nH]c1=O)Nc1cccc(S(=O)(=O)N2CCOCC2)c1	-7	-3	2	-2	3	-2	9	3
CC1Cc2ccccc2N1S(=O)(=O)c1cnc(Cl)c(Br)c1 (stereo not given)	6	-2	-11	-9	-10	1	-3	6
COc1ccc(-c2nc(C#N)c(NCC3CCCO3)o2)cc1 (stereo not given)	2	5	19	3	3	-1	2	-2
CCc1nnc(NC(=O)CSc2ncnc3c2oc2ccccc23)s1	4	6	-1	-2	-5	2	8	-3
CCc1nnc(NC(=O)CSc2nc(C)cs2)s1	2	2	7	2	1	4	-5	2
Cc1nc(SCC(=O)c2ccccc2)n[nH]1	0	0	9	5	2	-3	-2	2
Cc1ccc(C(=O)OCC(=O)c2ccc(S(=O)(=O)N3CCCCC3)cc2)o1	2	17	-7	1	-6	2	5	3
COc1cccc(CNS(=O)(=O)c2ccc3c(c2)NC(=O)CS3)c1	4	-3	0	-1	11	-2	3	2
CCc1nnc(NC(=O)CSc2nc3cc4c(cc3cc2C)OCCO4)s1	-4	-2	6	4	-6	-3	-16	-9

Ordered by the number under PAD4 inh (descending): 3 from the list above
| SMILES | PAD4 inh |
| --- | --- |
| CCc1nnc(NC(=O)CSc2ncnc3c2oc2ccccc23)s1 | 2 |
| CCc1nnc(NC(=O)CSc2nc3cc4c(cc3cc2C)OCCO4)s1 | -3 |
| Cc1c(CN2CCC(n3nccc3NC(=O)c3cccc(F)c3)CC2)cnn1C | -4 |

Following part:
SMILES	pPAFAH inh	LYPLA2 counter	PREPL inhibitor	LYPLA1 counter	PME-1 primary	PAD4 inh	PAFAH1B3 FP inh	PAFAH1B2 FP inh
COc1cc2c(cc1OC)C(C)N(S(=O)(=O)c1cn(C)c(C)n1)CC2 (stereo not given)	-1	7	0	5	0	-2	/	/
Cc1c(N=Cc2ccc(O)c(Br)c2)cccc1[N+](=O)[O-]	10	1	-6	-1	0	-7	5	1
CC1=C(C(=O)OCCCCCl)C(c2cc3c(cc2Br)OCO3)NC(=O)N1 (stereo not given)	0	3	-12	1	5	1	13	13
CCCc1cc(=O)[nH]c(SCC(=O)NCCCC(=O)OCC)n1	1	6	-1	-3	-1	-1	-5	-4
CCc1ccc2nc(NC(=O)c3ccc4c(=O)[nH]c(CN5CCOCC5)nc4c3)sc2c1	6	3	12	2	-7	-1	/	/
COc1ccc(S(=O)(=O)N(C(C)=O)c2ccc(OC(C)=O)c3ccccc23)cc1[N+](=O)[O-]	5	-1	23	-3	1	-1	3	2

Only PREPL inhibitor and PAD4 inh, for five of the compounds above:
SMILES | PREPL inhibitor | PAD4 inh
Cc1ccccc1/C=N/Nc1ccc(Cl)nn1 | 3 | -5
COc1cccc(/C=N/Nc2ccc(Cl)nn2)c1OC | 3 | 0
COc1ccc(Nc2oc(COc3cccc(C)c3)nc2C#N)cc1 | 15 | 5
CCc1nnc(NC(=O)CSC(=S)N2CCOCC2)s1 | -5 | -1
O=C1N=NC2=C1c1c3ccccc3c(O)n1CC2 | 0 | -13

An excerpt, so the mix of outcomes need not match the whole.
